Bioassay records as filed in PubChem.
Ecoli rRNA inh: reduced GFP signal of wild-type E. coli, primary screen, bacterial rRNA inhibitor project, GFP/RFP fluorescence, OD600, single point | E. coli WT GFP vs humanized-ribosome RFP mutants, 24 h; stronger effect = lower value; DMSO median 0, no signal -100 | GFP signal change (wild-type ribosome), % (test concentration not listed) | 1.6% of 350,000 active;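 active = significant combined selectivity score with lowered wild-type GFP, culture density cut under 30%, mutant RFP and density less affected; inactive = any of these conditions unmet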; also: one replicate is shown; some compounds called inactive have numbers as strong as hits
FGF22 binding: binders of human FGF22 protein, primary screen, FGF22 synaptogenesis inhibitor project, biophysical, thermal shift, single point; recombinant FGF22 thermal shift, SYPRO orange fluorescence; percent of sucrose octasulfate shift, DMSO zero; AID 651658, 2012; calls only at 9.99 µM; 1.5% of 340,000 active; Fibroblast growth factor 22 (Homo sapiens), Q9HCT0;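 active = melting point raised past a set limit in the mean and every replicate; three in four hits are not shown here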
Target sequence (Q9HCT0 whole entry, looked up): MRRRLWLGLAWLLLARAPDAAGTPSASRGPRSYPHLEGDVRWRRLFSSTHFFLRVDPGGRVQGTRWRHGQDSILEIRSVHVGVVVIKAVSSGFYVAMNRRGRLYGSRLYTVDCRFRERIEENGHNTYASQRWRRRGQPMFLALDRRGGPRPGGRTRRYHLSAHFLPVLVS
AF4-AF9 inh: inhibitors of AF4 peptide binding to AF9, primary screen, biochemical, AlphaScreen, biotin-AF4 peptide, FLAG-AF9, single point; Protein AF-9 (Homo sapiens), P42568; inhibition, % at 10 µM; 0.47% of 350,000 active; AID 651704, 2012;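 active = every replicate reaching a set inhibition limit, whatever the replicate mean, cut at about 25% in these data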;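 also: 0% = plate neutral control median and 100% = total signal loss; the record names both 10 and 1 µM as test concentration; the first replicate is given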
Target sequence (P42568 whole entry, looked up): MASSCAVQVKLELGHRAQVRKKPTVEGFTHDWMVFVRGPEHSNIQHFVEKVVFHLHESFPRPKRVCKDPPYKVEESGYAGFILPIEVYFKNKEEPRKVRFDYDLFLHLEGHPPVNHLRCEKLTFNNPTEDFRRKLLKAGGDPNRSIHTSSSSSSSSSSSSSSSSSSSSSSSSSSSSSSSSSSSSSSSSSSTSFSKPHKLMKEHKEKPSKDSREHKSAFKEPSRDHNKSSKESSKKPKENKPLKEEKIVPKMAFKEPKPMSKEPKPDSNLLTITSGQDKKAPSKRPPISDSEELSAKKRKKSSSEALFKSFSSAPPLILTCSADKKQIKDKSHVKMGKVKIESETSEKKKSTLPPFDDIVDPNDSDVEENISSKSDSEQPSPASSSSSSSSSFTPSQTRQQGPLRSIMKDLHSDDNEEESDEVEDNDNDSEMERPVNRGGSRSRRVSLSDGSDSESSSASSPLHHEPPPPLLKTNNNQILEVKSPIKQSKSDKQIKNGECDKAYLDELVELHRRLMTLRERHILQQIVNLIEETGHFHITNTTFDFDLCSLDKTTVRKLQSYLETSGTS
Ecoli rRNA inh OD600: also measured in Ecoli rRNA inh; calls as there; OD600 change, %; measured here: OD600 growth;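 optical density of the mix in the first replicate; 0 = DMSO median and -100 = no signal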
Ecoli rRNA inh RFP: further read-out of Ecoli rRNA inh, marked with its call; RFP signal change, %; measured here: RFP humanized mutant strains;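 first replicate; 0 = DMSO median and -100 = no signal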
Starred values were filed as active, the others as inactive; i = inactive; · = not tested or not shown; & = joins results of further samples.

SMILES | Ecoli rRNA inh | Ecoli rRNA inh OD600 | Ecoli rRNA inh RFP | FGF22 binding | AF4-AF9 inh
Cc1ccc(S(=O)(=O)N(C)C[C@H]2Oc3ccc(NS(=O)(=O)c4c(C)noc4C)cc3CC(=O)N([C@H](C)CO)C[C@@H]2C)cc1 | 0 | -8 | 1.8 | i | -0.5
OC[C@@H]1CN(Cc2ccncc2)C[C@H](n2cnc3c(NC4CC4)ncnc32)O1 | -4 | 7 | -4.3 | i | -2.9
N#C[C@@H]1[C@@H](c2ccccc2-c2ccccc2F)[C@H](CO)N1C(=O)C1CC1 | -1 | 8 | -3.2 | i | 0.7
Cc1cc(=O)n2nc(N3CCCC(C(=O)Nc4cccc(C)c4C)C3)sc2n1 (centres undefined) | 3 | 5 | 4.3 | i | -2.2
CCCC(=O)Nc1ccc2c(c1)OC[C@H](C)N(Cc1ccc(F)cc1)C[C@H](C)[C@@H](OC)CN(C)C2=O | -4 | -17 | 8.4 | i | 0.0
O=S(=O)(Nc1ccc2c3c(cccc13)CC2)c1ccccc1 | -57 | -73 | -5.9 | · | -5.0
Cc1ccc(S(=O)(=O)N[C@H]2CC[C@H](CCNC(=O)Cc3ccccn3)O[C@H]2CO)cc1 | 3 | 9 | 1.3 | i | -3.2
C[C@H](CO)N1C[C@H](C)[C@@H](CN(C)Cc2ccc(C(=O)O)cc2)Oc2ccc(NC(=O)c3ccncc3)cc2C1=O | 3 | 4 | -0.2 | i | -3.6
CC1CCCC(C)N1CCCNC(=O)C1CCCN(S(=O)(=O)N2CCCCC2)C1 (centres undefined) | 10 | 22 | -2.9 | i | -4.3
COc1ccc(C#Cc2cnc3c(c2)C(=O)N([C@@H](C)CO)C[C@@H](C)[C@@H](CN(C)CC2CCOCC2)O3)cc1 | 2&8 | 1&10 | 0.4&0.9 | i | 0.6&1.2
CN(C)c1ccc2c(c1)[C@@H]1C[C@H](CC(=O)NCCN3CCCCC3)O[C@H](CO)[C@@H]1O2 | 3 | 13 | -0.8 | i | 12
COc1ccc(C(=O)Nc2ccc3c(c2)C(=O)N(C)C[C@H](OC)[C@@H](C)CN[C@H](C)CO3)cc1 | -2 | 2 | 1.9 | i | -0.5
O=C(OCc1ccccc1)C1CCN(S(=O)(=O)c2cccs2)CC1 | -7 | -30 | -8.7 | i | 0.3
COc1ccc(-c2csc(C(O)c3cccc(OC)c3)n2)cc1 (centres undefined) | 1 | -25 | -2.1 | i | -1.3
Cc1noc(C)c1S(=O)(=O)N(C)C[C@@H]1OCCCC[C@@H](C)Oc2ccc(NS(=O)(=O)c3ccc(Cl)cc3)cc2C(=O)N([C@@H](C)CO)C[C@H]1C | -4 | -3 | -2.0 | i | 0.5
COc1ccc([C@H]2C[C@@H](n3cc(-c4ccc(F)cc4)nn3)[C@H](O)CN2C(=O)C2CCCCC2)cc1 | -9 | -7 | 0.2 | i | 1.0
CCS(=O)(=O)Nc1ccc2c(c1)C(=O)N(C)[C@H]1CC[C@H](CC(=O)Nc3ccccc3)O[C@@H]1CO2 | -2 | -4 | 1.0 | i | 0.9
C[C@@H]1CCCCO[C@@H](CN(C)C(=O)NC2CCCCC2)[C@H](C)CN([C@@H](C)CO)C(=O)c2cc(NC(=O)C3CCCCC3)ccc2O1 | 0 | -22 | -5.5 | i | -1.9
CCS(=O)(=O)N1CCCCN2[C@H](C1)[C@@H](c1ccc(-c3ccc(C#N)cc3)cc1)[C@@H]2CO | -2 | -12 | -4.4 | i | 2.4
O=C(C[C@@H]1CC[C@H]2[C@@H](COC[C@@H](O)CN2C(=O)Nc2ccc(Cl)c(Cl)c2)O1)NCc1ccc(F)cc1 | -59 | -79 | -17 | i | -0.2
COCC(=O)N1[C@H](CO)[C@@H]2c3ccccc3N(C(=O)C3CC3)C[C@@H]21 | 5 | 8 | -2.3 | i | -1.1
C/C=C/c1ccc2c(c1)O[C@H](CN(C)C(=O)Cc1cccnc1)[C@H](C)CN([C@H](C)CO)S2(=O)=O | -1 | 0 | -3.0 | i | -0.1
COc1ccc(S(=O)(=O)N(C)C[C@@H]2Oc3ccc(NC(=O)Nc4ccc5c(c4)OCO5)cc3CC(=O)N([C@@H](C)CO)C[C@H]2C)cc1 | -2 | -7 | -2.4 | i | -0.3
O=C(NCc1ccccc1)c1[nH]c(C(F)(F)F)nc1-c1ccccc1 | -29 | -25 | -2.1 | i | -2.3
C[C@@H]1CN([C@H](C)CO)C(=O)c2cc(NC(=O)NC3CCCCC3)ccc2O[C@H]1CN(C)CC1CCCCC1 | -3 | -4 | 1.5 | i | 2.0
O=C(NCC(F)(F)F)[C@H]1O[C@@H](n2ccc(=O)[nH]c2=O)[C@H](O)[C@@H]1O | 4 | 6 | -1.9 | i | -2.0
CO[C@H]1CN(C)C(=O)c2cc(NC(=O)c3cnccn3)ccc2OC[C@@H](C)N(C)C[C@H]1C | -1 | 4 | -0.6 | i | -1.3
CCC(=O)NC[C@H]1[C@@H](c2ccc(C3=CCCC3)cc2)[C@@H](CO)N1C(C)=O | 0 | -10 | -0.5 | i | -0.9
Cc1ccc(Cl)cc1NC(=O)N(C)CCOC(=O)Nc1cccc(Cl)c1 | -45 | -66 | -6.4 | i | 3.7
CO[C@H]1CN(C)C(=O)c2ccc(NC(=O)Nc3cccc(F)c3)cc2OC[C@H](C)N(C)C[C@@H]1C | 1 | -6 | -3.1 | i | -0.9
O=C(C[C@@H]1CC[C@@H]2[C@H](COC[C@H](O)CN2Cc2cccc(C(F)(F)F)c2)O1)NCc1ccccc1 | -6 | -21 | -3.8 | i | -0.4
COc1ccc(S(=O)(=O)N(C)C[C@H]2OCc3ccccc3-c3ccccc3C(=O)N([C@H](C)CO)C[C@@H]2C)cc1 | 0 | 2 | 0.3 | i | 0.1
Cc1ccccc1-c1cnc2c(c1)C(=O)N([C@H](C)CO)C[C@H](C)[C@H](CN(C)C(=O)CC1CC1)O2 | -1 | 9 | 0.0 | i | -11
C[C@H]1CN([C@@H](C)CO)C(=O)Cc2cc(NC(=O)Cc3ccccc3)ccc2O[C@H]1CN(C)Cc1ccc(C(=O)Nc2ccccc2N)cc1 | -7 | -25 | 0.5 | i | -1.2
CC=Cc1ccc2n(c1=O)C[C@H]1[C@H](CO)[C@@H](C(=O)NCc3ccc(F)cc3)[C@@H]2N1CCC (mixture of isomers) | -6 | 1 | 0.5 | i | 1.3
C=CCNc1ncnc2c1ncn2[C@H]1CN(Cc2cc(OC)c(OC)c(OC)c2)C[C@@H](CO)O1 | -1 | -2 | -0.4 | i | -0.4
COc1ccc2c3c(n(C)c2c1)[C@@H](CO)N(C(=O)NC(C)C)CC31CN(CC2CC2)C1 | 1 | 13 | 1.2 | i | 7.8
C[C@H](CO)N1C[C@H](C)[C@@H](CN(C)Cc2ccc(C(=O)O)cc2)Oc2ccc(NS(=O)(=O)c3cccs3)cc2CC1=O | 1 | 2 | 0.4 | i | -2.7
Cc1noc(C)c1S(=O)(=O)N(C)C[C@@H]1OCCCC[C@@H](C)Oc2ccc(NS(=O)(=O)c3cn(C)cn3)cc2C(=O)N([C@@H](C)CO)C[C@H]1C | -1 | 2 | -2.9 | i | 1.9
CC=Cc1ccc2n(c1=O)C[C@@H]1[C@@H](CO)[C@H](C(=O)N[C@H](C)c3ccccc3)N(C(=O)c3cnccn3)[C@H]21 (mixture of isomers) | 7 | 14 | -3.6 | i | -0.4
COC(=O)Cn1c2ccccc2c(=O)n1C(C)CBr (centres undefined) | 28 | 16 | 0.5 | i | -0.1
O=C(C1CCCC1)N1CCCCN2[C@H](CO)[C@H](c3ccc(C4=CCCC4)cc3)[C@@H]2C1 | -54 | -74 | -6.4 | i | 1.3
COc1ccc(S(=O)(=O)Nc2ccc3c(c2)[C@H]2C[C@@H](CC(=O)O)O[C@H](CO)[C@H]2O3)cc1 | 0 | 4 | -3.3 | i | -3.9
Cc1cc(N2CCOCC2)nc2ccc(NC(=O)C3CCCCC3)cc12 | 0 | 3 | -1.1 | i | 0.0
COc1ccc2c3c([nH]c2c1)[C@@H](CO)N(C(=O)C1CC1)CC31CN(C(=O)NC(C)C)C1 | 6 | 19 | 0.3 | i | 0.9
O=C(c1ccccn1)N1CC(=O)N2[C@H](C1)[C@@H](c1ccc(C#CC3CCCC3)cc1)[C@@H]2CO | 2 | -14 | 3.5 | i | -0.5
C[C@H](CO)N1C[C@H](C)[C@H](CN(C)CC2CC2)Oc2ccc(NC(=O)Cn3cnnn3)cc2C1=O | 1 | 5 | 0.2 | i | -3.2
C[C@@H]1CN([C@@H](C)CO)C(=O)c2cc(NS(=O)(=O)c3cn(C)cn3)ccc2O[C@@H](C)CCCCO[C@@H]1CN(C)S(=O)(=O)c1ccc(F)cc1 | 1 | 4 | 1.4 | i | -9.3
O=C(C[C@@H]1CC[C@H](NC(=O)c2ccc(F)cc2)[C@H](CO)O1)NCc1ccncn1 | 0 | 5 | -2.3 | i | 1.2
C[C@H](CO)N1C[C@H](C)[C@H](CN(C)S(=O)(=O)c2cccs2)Oc2ccc(NS(=O)(=O)c3ccc(Cl)cc3)cc2C1=O | 0 | -5 | 10.0 | i | 0.6
C[C@@H]1CN([C@H](C)CO)C(=O)Cc2cc(NS(=O)(=O)c3cn(C)cn3)ccc2O[C@@H]1CN(C)S(=O)(=O)c1ccccc1 | 0 | -2 | -2.3 | i | -1.5
COc1ccc(CN(C)C[C@H]2OCCCC[C@@H](C)Oc3ccc(NC(=O)Nc4ccc(F)cc4)cc3C(=O)N([C@H](C)CO)C[C@H]2C)cc1 | -15 | -43 | 32 | i | 21
COc1ccc(S(=O)(=O)Nc2ccc3c(c2)CC(=O)N([C@H](C)CO)C[C@@H](C)[C@@H](CN(C)S(=O)(=O)c2c(C)noc2C)O3)cc1 | 1 | 1 | -1.2 | i | -0.1
C[C@@H]1CN([C@H](C)CO)S(=O)(=O)c2ccc(C#CC3CC3)cc2O[C@@H]1CN(C)S(C)(=O)=O | 2 | -2 | -1.8 | i | 0.3
O=C([C@H]1[C@H](CO)[C@H]2Cn3c(ccc(-c4ccncc4)c3=O)[C@H]2N1CCC(F)(F)F)N1CCCCC1 | 1 | 4 | 0.1 | i | -3.6
C[C@@H]1CN([C@@H](C)CO)C(=O)CCCn2cc(nn2)CO[C@H]1CN(C)S(=O)(=O)c1ccc(-c2ccccc2)cc1 | -2&-3 | -4&-3 | 6.9&6.1 | i | -2.5&4.3
CO[C@H]1CN(C)C(=O)c2ccc(NS(=O)(=O)c3ccccc3)cc2OC[C@H](C)NC[C@H]1C | 1 | 7 | -2.9 | i | -3.5
CCCC(=O)Nc1ccc2c(c1)C(=O)N(C)C[C@@H](OC)[C@@H](C)CN(CCC)[C@@H](C)CO2 | 3 | 4 | -2.4 | i | -1.8
N#C[C@H]1[C@H](c2ccccc2-c2ccccc2)[C@H](CO)N1C(=O)NC1CCCC1 | 3 | -34 | -4.5 | i | -1.1
C[C@@H](NC(=O)[C@@H]1CCCN1C(=O)[C@@H]1CCCN1C(=O)c1cccc2ccccc12)c1ccccc1 | -8 | 5 | 0.8 | i | -4.4
CCC(=O)Nc1ccc2c(c1)OC[C@@H](C)N(C(C)=O)C[C@@H](C)[C@@H](OC)CN(C)C2=O | 3 | 6 | 1.6 | i | -1.2
C[C@H](CO)N1C[C@H](C)[C@@H](CN(C)C(=O)c2cc(Cl)cc(Cl)c2)OCc2ccccc2-c2c(n(C)c3ccccc23)C1=O | -2 | -1 | -1.4 | i | 5.4
CO[C@@H]1CN(C)C(=O)c2cc(NC(=O)CC(F)(F)F)ccc2OC[C@H](C)N(S(=O)(=O)c2cn(C)cn2)C[C@@H]1C | 1 | -4 | 2.0 | i | -0.2

The list is partial; rates above refer to the full screens.
